VACV Venus inh = inhibitors of vaccinia virus (Venus reporter) | Vaccinia virus Venus reporter expression, fluorescence | Potency, µM (top dose mostly 36.5 µM), inactives show at the highest dose activity change, negative = inhibition, usual class: inhibitors | actives 0.46% (n = 330,000); active means well fitted inhibition curve with a large enough effect; inconclusive means small, poorly fitted or top-dose-only effect; inactive means no such curve, though single readings can be large or run the other way; tested in A549 cells; note: nearly all actives have a fitted effect of over 30% in size; inactives centre near -10
VACV mCherry inh = inhibitors of vaccinia virus infection (mCherry reporter signal); Vaccinia virus mCherry reporter infection, fluorescence; about a quarter of the inactives have no number; Potency, µM (highest dose often 36.5 µM), for inactives: at the top dose activity change, negative = inhibition, most hits filed as inhibitors; AID 720579; actives 0.63% (n = 310,000); active = well fitted inhibition curve with a large enough effect; inconclusive = small, poorly fitted or top-dose-only effect; inactive = no such curve, though single readings can be large or run the other way; tested in A549 cells; note: nearly all actives have a fitted effect of over 35% in size; inactives centre near -10
An asterisk follows results filed as active; i = inactive; u = inconclusive; x = no result given; & = joins results of further samples; [ ] = another dose, or the depositor's remark. % is set by controls: 0 for no effect and ±100 for the full control effect; potency is the fitted concentration of half-maximal effect. Compounds as they come; about 0.87% have a hit in one of these screens.

SMILES | VACV Venus inh | VACV mCherry inh
O=S(=O)(c1ccccc1)N1C2CCC1CC(O)(c1cccnc1)C2 (centres undefined) | -9.4% | -11.5%
COc1cccc(CNS(=O)(=O)c2c(C(=O)N3CCC(C)CC3)c(C)n(C)c2C)c1 | -6.3% | -8.1%
Cc1ccc2c(c1)N(C(=O)N1CCC(C(=O)NCc3ccco3)CC1)CC(C)O2 (centres undefined) | -7.9% | -10.8%
CCOc1ccc(S(=O)(=O)NCCc2sc3nc(-c4ccc(C)cc4)nn3c2C)cc1 | u | u
Cc1ccn2c(=O)cc(C)nc2c1 | -0.7% | -11.2%
CCc1nc2c(OCCOc3ccc(F)cc3)cccn2c1N(C=O)Cc1ccccc1 | u | -9.8%
O=C(CSc1nnc(CNC(=O)c2ccccc2F)o1)NCCc1ccccc1 | 2.8% | -7.3%
COc1ccc(NC(=O)Cn2cc(C(=O)c3ccccc3)c(=O)c3cc(OC)ccc32)c(OC)c1 | 5.0% | -12.7%
N#CCCn1cc(C(=O)Nc2ccccc2Br)c(-c2ccc3c(c2)OCCO3)n1 | -12.8% | i
Cc1cc(C(=O)CSc2nc(N)cc(N)n2)c(C)n1C1CC1 | -12.4% | -19.9%
CC(Oc1cc2oc(=O)c3c(c2cc1Cl)CCC3)C(=O)NCCCN1CCOCC1 (centres undefined) | -7.6% | i
CCc1ccc(NC(=O)C(=S)NC2CCCCC2)cc1 | -5.8% | -1.9%
CN(C(=O)COC(=O)c1cc(-c2ccco2)nc2ccccc12)C1CCS(=O)(=O)C1 (centres undefined) | 3.3% | 2.2%
CC(C)(C)NC(=O)C(c1ccc(F)cc1)N(Cc1ccccc1Cl)C(=O)c1ccn[nH]1 (centres undefined) | -11.4% | u
COc1ccc(OC)c(/C=N/NC(=O)c2ccc(N(C)S(=O)(=O)c3ccccc3)cc2)c1 | -22.0% | -15.5%
CCCN=C1CC(C)(C)CC(=O)/C1=C(/O)CCC | -8.1% | -0.4%
CC(=O)c1cc(F)c(N2CCN(C(=O)Cc3ccccc3)CC2)cc1C | -23.9% | x
C=C(C)Cc1c(C)c(C#N)c2nc3ccccc3n2c1NCCCN(C)C | -8.2% | -12.1%
Cc1ccccc1NC(=O)CSc1nccn1Cc1ccco1 | -21.7% | i
Cc1ccc(NC(=O)CCNC(=O)c2ccc([N+](=O)[O-])cc2)cc1C | -12.6% | i

The final five records of the section above are carried over, then new ones follow:
SMILES | VACV Venus inh | VACV mCherry inh
CCCN=C1CC(C)(C)CC(=O)/C1=C(/O)CCC | -8.1% | -0.4%
CC(=O)c1cc(F)c(N2CCN(C(=O)Cc3ccccc3)CC2)cc1C | -23.9% | x
C=C(C)Cc1c(C)c(C#N)c2nc3ccccc3n2c1NCCCN(C)C | -8.2% | -12.1%
Cc1ccccc1NC(=O)CSc1nccn1Cc1ccco1 | -21.7% | i
Cc1ccc(NC(=O)CCNC(=O)c2ccc([N+](=O)[O-])cc2)cc1C | -12.6% | i
O=C(Nc1ccc(C(=O)N2CCOCC2)cc1)c1cc(-c2cccnc2)nc2ccc(Br)cc12 | -19.9% | -26.3%
Cc1cc(C)cc(NC(=O)CSc2nc3ncccc3[nH]2)c1 | -15.4% | -12.6%
O=C(CSc1nccc(-c2cccs2)n1)Nc1cccc(Cl)c1 | -1.5% | u
COCCNC(=O)C1CCC(CNS(=O)(=O)c2ccc3c(c2)CC(C)N3C(=O)C2CC2)CC1 (centres undefined) | -1.8% | -6.7%
CC(=O)c1ccc([N+](=O)[O-])cc1 | -19.9% | -5.8%
Cc1cccc(S(=O)(=O)NCCc2ccccc2)c1 | -10.7% | -12.3%
CCCCNC(=O)CSc1nc2ccccc2n1S(=O)(=O)c1ccc(Br)cc1 | -5.6% | -15.1%
COc1ccc(C(C)=O)cc1CN1CC=C(c2ccccc2)CC1 | 7.5% | u
COc1cccc(C(=O)Nc2ccc(S(=O)(=O)Nc3cc(C)nc(C)n3)cc2)c1 | -12.6% | -10.2%
CN(C)c1ccc(/C=C/c2cccc[n+]2[O-])cc1 | -7.7% | i
Cc1c(C(=O)N/N=C/c2ccncc2)no[n+]1[O-] | -14.8% | -1.5%
Cc1cc(C)n2cc(CSc3nnc(-c4ccccc4)o3)nc2n1 | -10.7% | x
O=C(Cn1ncc2c(=O)oc3ccccc3c21)N1CCCN(Cc2ccccc2F)C1 | -6.4% | 23.7%
O=C(NCc1ccccc1)c1cccc(S(=O)(=O)N2CCOCC2)c1 | -18.0% | x
O=C(COC(=O)C1CC1)Nc1c(Cl)cccc1C(F)(F)F | -8.1% | i
CCC(c1nnnn1C(C)(C)CC)N(CCCO)Cc1cc2cc(C)cc(C)c2[nH]c1=O (centres undefined) | u | x
CCN(CC)Cc1c(C(=O)OC)nnn1-c1nonc1N | -5.8% | -8.1%
CCCSC1=NC2(CCN(C(=O)NC3CCCCC3)CC2)N=C1c1ccccc1 | -5.0% | -4.1%
Cc1ccc(C(=O)NC2CC(C)(C)NC(C)(C)C2)cc1 | -5.8% | -3.1%
Cc1ccc(C(=O)N/C(=C\c2cccs2)C(=O)NCCc2c[nH]c3ccccc23)cc1 | -18.2% | i

Record cards, from the list above. Screens in order: VACV Venus inh	VACV mCherry inh
Record of Cc1ccc(C(=O)NC2CC(C)(C)NC(C)(C)C2)cc1 : -5.8%	-3.1%
Record of CCN(CC)Cc1c(C(=O)OC)nnn1-c1nonc1N : -5.8%	-8.1%

6 entries drawn at random from the list so far, as already listed:
SMILES | VACV Venus inh | VACV mCherry inh
COc1ccc(C(C)=O)cc1CN1CC=C(c2ccccc2)CC1 | 7.5% | u
Cc1ccc(C(=O)NC2CC(C)(C)NC(C)(C)C2)cc1 | -5.8% | -3.1%
CC(Oc1cc2oc(=O)c3c(c2cc1Cl)CCC3)C(=O)NCCCN1CCOCC1 (centres undefined) | -7.6% | i
O=C(Cn1ncc2c(=O)oc3ccccc3c21)N1CCCN(Cc2ccccc2F)C1 | -6.4% | 23.7%
CCCCNC(=O)CSc1nc2ccccc2n1S(=O)(=O)c1ccc(Br)cc1 | -5.6% | -15.1%
Cc1cc(C)cc(NC(=O)CSc2nc3ncccc3[nH]2)c1 | -15.4% | -12.6%

Remaining list, next part
SMILES | VACV Venus inh | VACV mCherry inh
COc1ccc(-c2nnc(SCC(C)C)o2)cc1 | -13.3% | 18.0%
CCOP(=O)(C#CC(C)(C)C)C(C)(O)c1ccccc1 (centres undefined) | -11.6% | x
O=C(CCc1ccc(S(=O)(=O)NC2CCCCC2)cc1)Nc1ccccc1 | -9.4% | i
CCN(CC)S(=O)(=O)c1cc(OC)c(Cl)cc1OC | -0.3% | -6.8%
Cc1cccc(NC(=O)c2cc(-c3c(C)cc(C)cc3O)n[nH]2)c1 | -8.9% | -13.3%
CN(C)c1ccc(C=NCC2(O)CCOC(C)(C)C2)cc1 (centres undefined) | 1.6% | -13.9%
NS(=O)(=O)c1ccc(CCNC(=O)c2ccccc2OCc2ccc(F)cc2)cc1 | -9.2% | -8.0%
COc1ccccc1N1CCN(C2CCCN(C(=O)C3=NN(C)C(=O)CC3)C2)CC1 (centres undefined) | -15.2% | -26.3%
CC(C)N(NC(=O)c1cccc2ccccc12)C(C)C | -14.7% | 3.1%
Cc1ccc(CC(=O)N2CCN(c3ccc([N+](=O)[O-])cc3)CC2)cc1 | -17.1% | -15.8%
CCOC(=O)CN(Cc1ccccc1)C(C(=O)NC1CCCCC1)c1ccc(OC)cc1 (centres undefined) | -18.0% | -20.0%
Cc1ccc(Cl)cc1N1CCN(c2ncnc3c2nc2n3CCCC2)CC1 | u | -29.8%
COc1cccc(NC(=O)NCc2ccc3c(c2)CCN3C(=O)c2ccccc2)c1 | -11.6% | -20.9%
CCOc1ccc(Sc2cc(C(=O)NCCc3ccccc3)c3ccccc3n2)cc1 | -7.3% | 0.9%
COC(=O)Cc1csc(Nc2ccccc2)n1 | -1.8% | -16.0%
C[C@H](CCCC/C=C/C(=O)O)O[C@@H]1O[C@@H](C)[C@H](O)C[C@H]1O | -9.5% | i
Cc1[nH]c2ccccc2c1/C=N/NC(=O)CNC(=O)COc1ccccc1 | -19.4% | u
COc1ccc(C2C(C(=O)Nc3ccc(C)cc3C)=C(C)Nc3nc(SC)nn32)cc1OC (centres undefined) | -2.5% | -7.5%
CCN1CCN(C(=O)Nc2ccc(Cc3ccc(NC(=O)N4CCN(CC)CC4)cc3)cc2)CC1 | 1.1% | -10.3%
NC(=O)c1ccc(NC(=O)COC(=O)/C=C/c2cn(-c3ccccc3)nc2-c2cccnc2)cc1 | -6.0% | -14.4%
CC(NC(=O)c1ccc(CS(=O)(=O)c2ccc(Cl)cc2)o1)c1ccc2c(c1)OCCO2 (centres undefined) | -7.5% | 22.8%
CN1CCN(c2ccc([N+](=O)[O-])c3cccnc23)CC1 | -14.7% | x
O=C(Nc1ccc(C(F)(F)F)cc1)C1CC(=O)N(c2ccc3c(c2)OCCO3)C1 (centres undefined) | -5.3% | x
CCN(CC)S(=O)(=O)c1ccc(N2CCOCC2)c(NC(=O)c2cc3ccccc3oc2=O)c1 | -24.5% | u
O=C(CSc1oc(-c2ccc(F)cc2)nc1S(=O)(=O)c1ccccc1)NC1CCCCC1 | u | -24.8%
NNC(=S)Nc1c(F)cc(F)cc1Br | -7.4%[7.34 µM] | u
COc1ccc(/C=C(\C#N)c2nc(-c3cc4c(ccc5ccccc54)oc3=O)cs2)cc1O | -0.7%[7.34 µM] | -1.0%[7.34 µM]
Cc1ccc(N2CCN(C(=O)C(=O)c3ccc4c(c3)OCO4)CC2)cc1 | -15.6% | u
COc1c2ccoc2c(OCC=C(C)C)c2oc(=O)ccc12 | -16.5% | -3.7%
O=C(OCc1ccccc1)N1CCCC1/C=C/CN1CCOCC1 (centres undefined) | -10.8% | -13.6%
Cc1ccc(S(=O)(=O)N2CCN(C(=O)c3c(-c4ccccc4)noc3C)CC2)cc1C | -17.9% | i
CCOc1ccccc1N(C)C(=O)c1cn(C)c(=O)c2ccccc12 | -5.6% | -3.2%
CSc1cccc(NS(=O)(=O)c2ccc(C(C)=O)cc2)c1 | -13.3% | -7.2%
O=C(Nc1ccc2nc3n(c(=O)c2c1)CCCCC3)C(=O)N1CCN(c2ccccc2F)CC1 | -6.7% | -1.2%
CCCCNC(=O)CN1CCN(c2ccc(NC(=O)c3ccc(OC)cc3)cc2C(=O)O)CC1 | -9.7% | -6.5%
O=[N+]([O-])c1ccccc1SNc1ccc(Br)cn1 | -17.8% | -18.5%
CC1CC(c2ccccc2)=Nc2ccccc2N1 (centres undefined) | 2.4% | -10.6%
Cc1cc(OCC(=O)Nc2ccc3c(c2)OCCO3)cc(C)c1Cl | -16.0% | -4.2%
COc1ccc2c(c1)C[C@]1(C)c3ccccc3C(=O)N(Cc3ccccc3)[C@H]21 | u | -25.6%&-12.2%
O=C1OC(c2ccc(O)cc2)(c2ccccc2O)c2ccccc21 (centres undefined) | -14.7% | -26.7%
CCCN(CCC)c1ccc(CC(=O)NC(C)Cc2ccccc2)cc1 (centres undefined) | -11.5% | -5.9%
c1ccc(-c2c[nH]c3[n+]2CCCCC3)cc1 | -19.0% | x
CCC(CC)N1CCN(C(=O)c2cccc(Cl)c2)CC1 | -17.4% | -14.5%
C/C=C/COC(=O)c1[nH]c2c(c1C)C(=O)CC(c1ccc(N(C)C)cc1)C2 (centres undefined) | -19.8% | -26.7%
c1cnc2ccc(-n3ccnc3)cc2c1 | -9.0% | i
CCCNS(=O)(=O)c1ccc2c(c1)n(C)c(=O)n2C | -13.6% | -14.2%
O=C1c2ccccc2S(=O)(=O)c2cc(N3CCOCC3)ccc21 | u | -15.2%
COc1cc(NC(=O)CCc2ccccc2)c(C(=O)O)cc1OC | -9.5% | x
O=C(COC(=O)c1ccccc1OCC(=O)Nc1ccc(Br)cc1)Nc1ccccc1 | -9.3%&-14.1% | -8.0%&-6.0%
S=C(NCc1ccco1)N1CCN(C/C=C/c2ccccc2)CC1 | -12.8% | -11.3%

Filtered by structure: the compounds so far containing a tert-butyl group
SMILES | VACV Venus inh | VACV mCherry inh
CC(C)(C)NC(=O)C(c1ccc(F)cc1)N(Cc1ccccc1Cl)C(=O)c1ccn[nH]1 (centres undefined) | -11.4% | u
CCOP(=O)(C#CC(C)(C)C)C(C)(O)c1ccccc1 (centres undefined) | -11.6% | x

Screens as filed in PubChem BioAssay.
